# Compound activity (PubChem BioAssay)
# UCH37 inh = human UCH37 deubiquitinating enzyme inhibition. AID 588478. inhibition, % (no concentration beside the values). actives 0.33% (n = 330,000). purified proteasome/UCH37, Ub-AMC cleavage fluorescence;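 active means mean of two replicates above 20%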;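 further: 0% = compound-free wells with enzyme and 100% = wells lacking proteasome; stock transfer was 100 nL into about 20 µL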
# Target sequence (Q9Y5K5 whole entry, looked up): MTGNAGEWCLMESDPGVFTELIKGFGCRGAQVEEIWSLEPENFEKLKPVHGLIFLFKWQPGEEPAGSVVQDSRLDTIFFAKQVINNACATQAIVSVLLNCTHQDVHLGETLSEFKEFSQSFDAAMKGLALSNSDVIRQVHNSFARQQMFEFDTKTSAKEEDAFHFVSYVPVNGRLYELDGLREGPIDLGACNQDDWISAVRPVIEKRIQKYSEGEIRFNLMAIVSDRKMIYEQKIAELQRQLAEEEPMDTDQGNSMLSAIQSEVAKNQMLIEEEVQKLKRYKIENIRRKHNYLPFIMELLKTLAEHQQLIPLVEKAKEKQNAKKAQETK
#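 Reagent: Ub-AMC substrate; assay system: Proteasome-associated human UCH37 deubiquitinase; controls: no-proteasome and no-compound wells; read-out: % inhibition of Ub-AMC cleavage fluorescence; timing: 30 min preincubation with enzyme, 25 min cleavage at room temperature; signal: AMC fluorescence from Ub-AMC cleavage, excitation 355 nm, emission 460 nm; buffer or medium: Tris-HCl pH 7.4 plus ovalbumin, ATP-MgCl2, DTT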
# FGF22 binding = shifts melting point of recombinant human FGF22; Q9HCT0; recombinant FGF22 thermal shift, SYPRO orange fluorescence; percent of sucrose octasulfate shift, DMSO zero; calls only at 9.99 µM; actives 1.5% (n = 340,000); AID 651658;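 active means melting point raised past a set limit in the mean and every replicate; inconclusive means no clear call; three in four hits are not shown here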
# Target sequence (Q9HCT0 whole entry, looked up): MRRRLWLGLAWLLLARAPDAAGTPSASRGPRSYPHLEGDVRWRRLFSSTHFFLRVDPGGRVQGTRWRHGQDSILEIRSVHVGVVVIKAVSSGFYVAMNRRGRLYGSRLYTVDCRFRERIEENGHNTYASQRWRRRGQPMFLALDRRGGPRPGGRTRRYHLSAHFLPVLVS
# Beta2AR agonist = human beta-2 adrenergic receptor agonism by FAP; P07550; Am2.2-beta2AR cells, FAP receptor internalization, flow cytometry; reference of the scale not given here; response, % (concentration not given with the values); actives 0.43% (n = 340,000);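 active means response above a set limit, near 3 SD of response in nonfluorescent compounds, cut at about 42% in these data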;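 further: stock transfer was 100 nL into about 11 µL; a reference agonist was the positive control; negative values mostly stem from fluorescent compounds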
# Ecoli growth = E. coli growth inhibition | Escherichia coli growth, OD600, 23 h; active compounds read low | actives 0.21% (n = 330,000) | AID 1053175 | OD600 absorbance (concentration not given with the values);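 active means OD600 absorbance below the run mean of sample wells minus 3.6 SD, in any replicate, cut at about 0.56 in these data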;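 further: stock transfer was 300 nL into about 60 µL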
# ALR inh = human ALR oxidase inhibition via reduced H2O2; inhibition, % (test concentration not listed); P55789; purified ALR, DTT oxidation, H2O2 HRP-luminol luminescence; actives 3.8% (n = 290,000);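 active means mean and each replicate at 75% or more; inconclusive means only one of the two met; inactive means neither met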;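 further: stock transfer was 7.5 nL into about 7.5 µL; 0% = neutral wells and 100% = wells with inactivated enzyme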
# Target sequence (P55789 whole entry, looked up): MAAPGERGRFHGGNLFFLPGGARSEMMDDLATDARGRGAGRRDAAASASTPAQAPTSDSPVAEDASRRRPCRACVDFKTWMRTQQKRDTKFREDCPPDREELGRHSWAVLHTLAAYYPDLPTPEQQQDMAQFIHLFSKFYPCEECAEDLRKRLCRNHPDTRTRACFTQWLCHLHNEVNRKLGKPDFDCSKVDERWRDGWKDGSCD
# Ecoli rRNA inh = inhibitors of bacterial rRNA selective over humanized ribosomes | E. coli WT GFP vs humanized-ribosome RFP mutants, fluorescence, 24 h; active compounds read low; DMSO median 0, no signal -100 | GFP signal change (wild-type ribosome), % (concentration not given with the values) | actives 1.6% (n = 350,000) | AID 720706;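 active means significant combined selectivity score with lowered wild-type GFP, culture density cut under 30%, mutant RFP and density less affected; inactive means any of these conditions unmet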; further: one replicate is shown; some compounds called inactive have numbers as strong as hits
# HNF4A DNA FP = change in binding of human HNF4 alpha to DNA | AID 1224865 | actives 0.3% (n = 360,000) | activity change, % at 10 µM | HNF4a-FITC DNA binding, fluorescence polarization, 1 h; in the data active means activity change above about 30%, passing the limit was not always enough;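 further: controls were the assay level and a saturating level of protein; the project sought stronger binding though the title names inhibitors; some compounds called inactive have numbers as strong as hits; positive values seem to mean higher polarization but the record does not say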
# Ecoli rRNA inh OD600 = recorded beside Ecoli rRNA inh, whose call it bears; OD600 change, %; measured here: OD600 growth;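 optical density of the mix in the first replicate; 0 = DMSO median and -100 = no signal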
# Ecoli rRNA inh RFP = further read-out of Ecoli rRNA inh, marked with its call; RFP signal change, %; measured here: RFP humanized mutant strains;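 first replicate; 0 = DMSO median and -100 = no signal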
# An asterisk follows results filed as active; i = inactive; ? = inconclusive; · = not tested or not shown.
SMILES,UCH37 inh,FGF22 binding,Beta2AR agonist,Ecoli growth,ALR inh,Ecoli rRNA inh,Ecoli rRNA inh OD600,Ecoli rRNA inh RFP,HNF4A DNA FP
COc1ccc(C(CC(=O)c2ccc(O)cc2)S(=O)(=O)c2ccc(C)cc2)cc1 (configuration not stated),-2.5,i,6,0.65,-47,-24*,-9.2*,-1.0*,-0.4
Cc1cccc(Oc2nc3ccccn3c(=O)c2/C=C(\C#N)C(=O)NC2CCS(=O)(=O)C2)c1 (configuration not stated),-49,·,-15,0.67,·,·,·,·,1.3
COc1ccc2cc3c(N)nn(C(=O)c4ccc(Cl)c([N+](=O)[O-])c4)c3nc2c1,7.7,i,27,0.69,2,15,7,-7.6,35
COC(=O)c1c(C)nsc1NC(=O)Oc1ccccc1,4.3,·,4,0.72,?,7,7,0.3,-1.5
N#Cc1c(N2CCOCC2)nc(-c2ccco2)c2c1CCCC2,-135,·,4,0.67,9,·,·,·,-2.3
CCCCOP(=O)(OCCCC)C1(NS(=O)(=O)c2ccccc2)C=CC(=O)c2ccccc21 (configuration not stated),2.7,·,0,0.74,53,·,·,·,1.2
c1ccc(N2CCOCC2)c(Nc2nc3ccccc3n3cnnc23)c1,1.7,i,-5,0.77,32,-14,-27,-0.7,4.1
CC(OC(=O)CCOc1ccccc1)C(=O)Nc1ccc(Cl)cn1 (configuration not stated),0.5,i,29,0.67,-2,1,4,1.7,-0.1
CCOc1ccc(/C=N/Nc2nc(=O)[nH]nc2C)cc1OC,·,·,5,·,0,·,·,·,-1.8
O=C(CN1C(=O)CCC1=O)c1ccc(-c2ccccc2)cc1,0.6,i,-5,0.67,-8,·,·,·,0.7
CC1(C)CC2CC(C)(CN2Cc2cccc([N+](=O)[O-])c2)C1 (configuration not stated),-0.3,i,5,0.74,3,6,-3,0.1,0.7
CC1CCCCN1C(=O)CSCC(=O)Nc1nc(-c2cccs2)cs1 (configuration not stated),1.2,i,-4,0.76,3,-16,-54,0.9,1.8
Cc1cc(-c2nnc(SCC(=O)N3C(C)CCCC3C)o2)no1 (configuration not stated),1.5,·,-25,0.69,0,·,·,·,0.3
Cn1nc(C(F)(F)F)c2cc(C(=O)Nc3ccc(F)cc3)sc21,5.7,i,6,0.7,1,1,-5,-1.2,5.7
CC(C)CNC(=O)NC(=O)COC(=O)c1cccc(NS(=O)(=O)c2ccc(F)c(F)c2)c1,2.6,·,-3,0.7,-6,·,·,·,2.6
CC1CCCN(S(=O)(=O)c2ccc(C(=O)Nc3nnc(-c4ccccn4)o3)cc2)C1 (configuration not stated),8.6,i,-1,0.7,14,-35,-39,-8.0,-0.4
CCCCn1c(=O)[nH]c(=O)c2c1nc(-c1ccc(-c3ccccc3Br)o1)n2CCOC,-43,·,-2,0.75,-6,·,·,·,5.7
Cc1cc(C)n(/N=C/c2cc([N+](=O)[O-])ccc2O)c(=O)c1,·,i,0,·,2,15,14,0.8,-2.2
Cc1ccc(C(=O)Nc2cccnc2)cc1[N+](=O)[O-],1.1,i,-2,0.67,-1,11,-4,0.8,2.1
O=C(NCc1ccco1)c1ccc(-c2ccccc2Cl)o1,3.8,i,7,0.63,3,-28,-53,-8.7,4.6
Cc1ccc(Nc2cc(C)nc3ncnn23)c(C)c1,0.6,i,-4,0.68,·,7,12,-0.6,4.0
CC(C)=C1C2C=CC1C1C(=O)N(c3ccc4c(c3)OCO4)C(=O)C21 (configuration not stated),1.0,·,1,0.69,-1,·,·,·,4.1
COc1ccc(S(=O)(=O)N(C)CC(=O)NCc2ccco2)cc1OC,1.2,i,0,0.67,-2,9,13,-1.4,0.2
CC(C)c1ccc(N2C(=NC(=O)C3CCCO3)SC3CS(=O)(=O)CC32)cc1 (configuration not stated),1.5,i,2,0.69,-3,5,9,1.9,-1.4
CCOc1ccccc1NC(=O)COC(=O)C1CCC(=O)N1 (configuration not stated),5.5,i,-1,0.67,-2,6,13,3.6,3.6
COc1ccccc1CCC(=O)Nc1ccc2c(c1)c(=O)n(C)n2C,·,i,·,·,·,6,23,-0.1,-2.2
O=C(Cc1ccc(F)cc1)OCN1C(=O)c2ccccc2C1=O,2.0,i,-6,0.66,0,8,12,-1.4,4.8
O=C(COc1ccccc1[N+](=O)[O-])NNC(=O)Nc1cccc2ccccc12,-1.9,i,2,0.66,-35,-3,-9,4.4,2.5
O=C(CCNS(=O)(=O)c1ccc(Br)cc1)NCc1ccc2c(c1)OCO2,4.8,·,-4,0.7,-11,·,·,·,5.2
CCn1c(=O)c2c(n3c(=S)[nH]nc13)-c1ccccc1CC21CCCCC1,3.0,·,-13,0.71,21,-15,-15,-1.4,-5.4
O=C(CSc1ccc(-c2cccnc2)nn1)Nc1ccccc1F,0.3,i,-4,0.64,10,·,·,·,-1.3
COc1ccc(CCNC(=O)c2ccccc2)cc1,4.6,i,-1,0.64,11,3,3,-0.3,1.1
COC(=O)c1cccc(NC(=S)NCc2ccc(F)cc2)c1,1.8,i,-1,0.64,-1,-22,-27,-5.4,2.4
Cc1ccc2nc(Nc3ccc(F)cc3)c3nncn3c2c1,-90,i,-13,0.63,-1,6,12,-0.1,12
N/C(=N\O)c1ccc([N+](=O)[O-])s1,·,i,-4,·,·,6,-6,0.1,-3.4
Cc1sc2ncn(/N=C/c3ccco3)c(=O)c2c1C,·,i,-14,·,·,7,11,-4.3,-0.7
Cc1ccc(S(=O)(=O)N2CCOCC2)cc1NC(=O)CSc1cccc[n+]1[O-],4.2,·,12,0.71,9,·,·,·,0.3
N#C/C(=N\Nc1ccc(Br)cc1)C(=N)N1CCOCC1,·,·,-2,·,98*,-26*,-18*,-3.2*,-0.9
O=C(CCS(=O)(=O)c1cccc2nsnc12)NC1CCCCC1,6.3,·,5,0.67,-11,·,·,·,0.0
Cc1ccc(S(=O)(=O)N2CC(=O)NC(=O)C2)cc1,1.9,i,5,0.69,-5,20,7,1.3,-1.7
Cc1nnc(SCCn2c(N3CCCC(C)C3)nc3c2c(=O)[nH]c(=O)n3C)s1 (configuration not stated),3.3,·,26,0.71,-4,·,·,·,-4.0
CN(C(=O)COc1ccc(Cl)cc1Br)C1CCCCC1,5.5,i,-9,0.75,0,-23,-55,0.2,3.5
Cc1ccc(NC(=O)c2ccc(=O)[nH]c2)cc1S(=O)(=O)N1CCCCC1,1.7,i,4,0.67,-1,-6,-3,-2.0,-0.2
CSC1=NC(=O)/C(=C\c2cccc3ccccc23)S1,2.2,i,11,0.68,28,-55,-74,-26,-1.4
CCC1CC(C)(C(=O)Nc2ccc(S(N)(=O)=O)cc2)OC1=O (configuration not stated),1.2,·,4,0.72,·,·,·,·,1.2
COc1ccc(O)c(/C=N/Nc2nc(C)cc(-c3ccccc3)n2)c1,·,i,13,·,3,-20,-23,2.6,-3.5
O=C1CC(N2CCC(c3nc4ccccc4o3)CC2)C(=O)N1 (configuration not stated),-3.2,i,1,0.64,·,11,1,-1.7,2.1
CCOC(=O)C1CCN(C(=O)/C=C/c2cccs2)CC1,3.2,i,5,0.66,0,9,4,0.4,0.8
COc1ccc(CCNC(=O)CCS(=O)(=O)c2cccc3nsnc23)cc1OC,4.9,·,-3,0.67,-25,·,·,·,0.2
Cc1nnc(NC(=O)c2cccc(S(=O)(=O)N3CC(c4ccccc4)CC3=O)c2)s1 (configuration not stated),1.7,i,1,0.66,-1,-1,12,-2.6,0.6
CCN(CC)c1ccc(NC(=O)c2ccc(NC(=O)C3CCCO3)cc2)c(C)c1 (configuration not stated),2.7,·,1,0.72,99*,·,·,·,1.4
CCCNC(=S)N1CCC(NC(=O)Nc2ccc(C)cc2)CC1,-1.7,i,2,0.63,-12,14,7,2.7,3.0
Cc1cccc(Nc2nc(NC(C)C)nc(Oc3ccc(=O)n(C)n3)n2)c1,4.5,·,-9,0.72,-1,·,·,·,3.0
O=C(NCc1ccccc1)c1ccc2nc(N3CCOCC3)sc2c1,2.4,i,0,0.66,·,-10,-8,-6.1,1.4
CN1CCN(C(=S)NC(=O)c2ccc(Br)cc2)CC1,2.9,i,0,0.66,-2,8,9,0.4,-0.6
COc1ccccc1C1OCC(C)([N+](=O)[O-])CO1 (configuration not stated),3.1,i,4,0.72,·,7,9,1.4,3.0
Cc1c(Cl)cccc1-n1cnc(=O)c2ccccc21,6.1,i,3,0.66,3,·,·,·,0.4
CCN(CC)Cc1c(O)ccc2c(=O)c(-c3ccccc3OC)coc12,i,i,12,0.69,-2,0,1,-2.4,-1.4
CCOC(=O)C(C)Oc1cccc2c(=O)n(CC(=O)Nc3ccc(OCC)cc3)ccc12 (configuration not stated),-1.5,i,5,0.74,·,6,12,-2.4,0.3
Clc1ccccc1Nc1ncnc2c1nnn2Cc1ccccc1,-2.4,i,5,0.7,-3,1,-6,-7.6,0.9

# Three records picked at random from the list so far, as already listed:
SMILES,UCH37 inh,FGF22 binding,Beta2AR agonist,Ecoli growth,ALR inh,Ecoli rRNA inh,Ecoli rRNA inh OD600,Ecoli rRNA inh RFP,HNF4A DNA FP
Cc1cccc(Nc2nc(NC(C)C)nc(Oc3ccc(=O)n(C)n3)n2)c1,4.5,·,-9,0.72,-1,·,·,·,3.0
O=C(NCc1ccccc1)c1ccc2nc(N3CCOCC3)sc2c1,2.4,i,0,0.66,·,-10,-8,-6.1,1.4
COc1ccc(O)c(/C=N/Nc2nc(C)cc(-c3ccccc3)n2)c1,·,i,13,·,3,-20,-23,2.6,-3.5

# Continuation.
SMILES,UCH37 inh,FGF22 binding,Beta2AR agonist,Ecoli growth,ALR inh,Ecoli rRNA inh,Ecoli rRNA inh OD600,Ecoli rRNA inh RFP,HNF4A DNA FP
O=C(/C=C/c1ccc(OCCCF)cc1)NCc1ccc(Cl)c(Cl)c1,2.4,·,10,0.76,·,·,·,·,-5.0
Cc1cccc(N(C(=O)c2csnn2)C(C(=O)NCc2ccccc2)c2ccc(C)o2)c1 (configuration not stated),-0.9,i,3,0.66,-1,-5,-13,-1.3,-0.8
Cc1nc2ccc(C(=O)N/N=C/c3cc([N+](=O)[O-])ccc3O)cc2[nH]1,·,i,6,·,-6,·,·,·,-2.1
Cc1ccc(-n2nc3c(=O)n(CCCC(=O)NCc4cccc(F)c4)nc(C)c3c2C)cc1,3.3,i,-7,0.69,·,4,11,-1.0,5.4
CCc1cc(=O)oc2c(C)c(OC(C)C(=O)NCC3CCC(C(=O)O)CC3)ccc12 (configuration not stated),-24,i,-3,0.7,·,1,13,0.6,4.5
Cc1cc(C2C(C#N)=C(N)OC3=C2C(=O)CCC3)c(C)s1 (configuration not stated),3.0,·,9,0.69,-6,·,·,·,-3.2
O=C(NN1C(=O)c2ccccc2NC1c1ccc([N+](=O)[O-])o1)c1ccc(Br)cc1 (configuration not stated),7.1,i,-2,0.69,-49,23,18,-2.6,3.4
COc1ccc(-c2ccc(CCC(=O)O)n2Cc2ccco2)cc1,0.2,i,3,0.7,-1,11,6,11,0.8
CC(C)(C)OC(=O)N1CCC[C@H]1c1nnc(SCc2cccc(Cl)c2)o1,2.2,i,2,0.66,-6,-1,15,1.8,1.7
Cc1ccc(OCC(=O)NNC(=O)c2ccco2)c(C)c1,0.8,i,1,0.69,-2,5,7,-1.5,1.1
CCc1nnc(NC(=O)CSc2nnc3nc(C)cc(C)n23)s1,-1.2,i,-21,0.65,4,12,16,-1.4,6.3
CN(C)C(=O)CSc1n[nH]c(=O)[nH]c1=O,3.0,i,0,0.69,-4,20,9,2.6,-0.6
O=C(O)CSc1ccccn1,-1.9,·,-5,0.76,-4,·,·,·,1.1

# The list is partial (hit frequency here may not be typical).
